Source: PubChem (ICCB-Longwood Screening Facility, Harvard Medical School)
Sa helicase inh – S. aureus DNA helicase inhibition. purified S. aureus helicase, fluorescence unwinding assay; about half of the hits fall short of the stated cut. hit rate 0.05% among 120,000. inhibition, %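 (tested at about 80 µM)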. AID 485395;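 active means both duplicates at 50% or more, or one of them with a favoured structure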;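 further: 0% = mean of negative control wells and 100% = mean of positive control wells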
MgrA DNA FP – modulators of Staphylococcus aureus MgrA DNA binding | fluorescence polarization | inhibition, %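 (about 10 µg/mL by stock and volumes)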 | hit rate 0.13% among 84,000 | AID 602314;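 active means above 50% in either of two replicates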;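 further: 0% = protein plus DNA without compound and 100% = DNA alone without protein; higher means less MgrA bound to DNA so lower polarization; one replicate is shown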
* marks the source's active call; other numbers are inactive results; nt = not tested or not shown.

canonical_smiles,Sa helicase inh,MgrA DNA FP
O=C(c1cc(-c2ccccc2Cl)nc2ccccc12)N1CCN(C2CCS(=O)(=O)C2)CC1 (stereo not drawn),7,nt
O=C(O)/C=C/C(=O)Nc1ccc(SC(F)(F)F)cc1,-20,3.0
CCCc1ccc(C(=O)COc2ccc(-n3cnnn3)cc2)cc1,-11,nt
COC(C(=O)Nc1ccccc1SC)c1ccccc1 (stereo not drawn),9,-2.1
CCCCn1nc(NS(=O)(=O)c2ccc(C)cc2)c2cc3cccc(C)c3nc21,7,0.0
Cc1nc2cc(-n3ccc(=O)cc3)ccc2n1-c1ccccc1,-4,3.4
OCC(O)C1OC(Nc2ccc(Cl)cc2)C(O)C1O (stereo not drawn),0,3.5
COC(=O)C(=O)/C=C(\O)c1c(F)c(F)c(OC)c(F)c1F,nt,3.7
O=[N+]([O-])c1cccnc1NC1CC1,nt,0.2
CC1C(=NO)C(C)C(c2ccccc2)NC1c1ccccc1 (stereo not drawn),7,0.2
C=CCOc1nc(-c2ccccc2)cc(-c2ccc(OC)cc2)n1,-1,-0.4
Cc1cccc(NC(=S)NCc2ccco2)c1,6,nt
Cc1ccc2c(c1)c1c3n2CCN(CCC#N)C3CCC1 (stereo not drawn),5,nt
Cc1cccc(N2CCN(C(=O)CN3CCN(Cc4ccc(Cl)cc4)C3=O)CC2C)c1 (stereo not drawn),4,-0.2
COc1ccccc1N1CCN(C(=O)c2cnc(Nc3ccc(C)c(Cl)c3)c3ccccc23)CC1,-3,0.6
Cc1cc(=O)[nH]c(NNC(=S)NCc2ccccc2)n1,-12,nt
COC(=O)CSc1n[nH]c(-c2ccccn2)n1,14,4.5
CSc1nnc(-c2ccc(C(C)(C)C)cc2)o1,nt,0.0
CN1C(=O)NC(c2ccccc2)C2=C1CC(C)(C)CC2=O (stereo not drawn),-15,0.2
O=C1OC(Nc2cccc(C(F)(F)F)c2)c2ccccc21 (stereo not drawn),16,nt
CSc1ccccc1C(=O)Nc1ncn[nH]1,1,14
NC(=S)N/N=C1/C(=O)c2cccc3cccc1c23,-3,nt
CC1(C)CC(NC(=S)NC(=O)c2ccccc2)CC(C)(C)N1,14,0.7
Nc1nnc(SCC(=O)Nc2ccc3c(c2)OCO3)s1,nt,5.2
CN(Cc1ccccc1)C(=O)c1cc(S(=O)(=O)N2CCCC2)cn1C,2,3.2
COc1ccc2c3c([nH]c2c1)[C@@H]1C[C@@H]2C(OC(C)=O)=COC(C)C2CN1CC3 (stereo partly drawn),1,3.1
COc1cccc(N=Cc2cn(-c3ccccc3)nc2-c2cccs2)c1,12,nt
Cn1c(/C(C#N)=C(\O)COc2cc(Cl)c(Cl)cc2Cl)nc2ccccc21,6,nt
CC1(C)C(=S)NC(c2ccccc2)N1O (stereo not drawn),nt,-3.8
CC(NC(=O)c1cccs1)C(c1cccs1)N1CCN(C)CC1 (stereo not drawn),6,nt

Additional records follow:
canonical_smiles,Sa helicase inh,MgrA DNA FP
Cc1ccc(Sc2c(C)nn(C(=O)c3ccco3)c2C)cc1,-17,nt
CCCCN(C(=O)Nc1cccc2ccccc12)C1CCS(=O)(=O)C1 (stereo not drawn),0,-3.0
Cc1nc(COc2ccc(C(C)(C)C)cc2)ncc1S(=O)(=O)c1ccc(Cl)cc1,nt,-2.2
O=C(COc1c(-c2ccco2)oc2ccccc2c1=O)c1ccc(Br)cc1,-1,-3.0
O=C1C(Cc2cc(Cl)ccc2Cl)S/C(=N\N=C\c2ccccc2O)N1Cc1ccco1 (stereo not drawn),6,nt
C=CCN(C(=O)CN1CCN(C)CC1)c1nc(-c2c[nH]c3ccccc23)cs1,-15,nt
CCOc1cccc(CNc2ccc(NC(=O)CC)cc2)c1O,11,0.2
COC(=O)c1c(C(=O)OC)c2n(c1C)CCS2,3,nt
O=C(NCCC(=O)N1CCN(c2ncccn2)CC1)c1ccccc1Cl,9,nt
OCCN1CCN(Cc2cc(Cl)c3cccnc3c2O)CC1,-13,nt
O=c1c2ccccc2c(-c2ccccc2)nn1CN1CCCC1,-24,nt
CCc1cc2c(Cl)ncnc2s1,5,-1.9
Cc1cc(-n2nc(C)cc2C)nc(NS(=O)(=O)c2ccccc2)n1,nt,-0.3
CCOC(=O)c1cnc(SCC(=O)N2c3ccccc3SC3C=CC=CC32)nc1N (stereo not drawn),15,0.8
Cc1noc(C)c1CC(=O)Nc1cc(C(F)(F)F)ccc1NC1CCCCC1,-9,nt
N#C/C(=C\C(=C\N1CCOCC1)c1ccccc1)c1ccccc1,nt,-1.8
O=C(O)CN1C(=O)/C(=C\c2ccc(C(F)(F)F)cc2)SC1=S,nt,4.9
CCOc1ccccc1C1C(C#N)=C(SC)NC2=C1C(=O)CCC2 (stereo not drawn),-14,nt
O=C1c2cccc([N+](=O)[O-])c2C(=O)N1CCc1c[nH]c2ccc(OCc3ccccc3)cc12,nt,-0.8
CN(CC(=O)Nc1ccccc1Cl)CC1COc2ccccc2O1 (stereo not drawn),-8,nt
CC(C)(C)NC[C@@H](O)COc1cccc2c1CCCC2=O,nt,-0.5
O=C(Cc1ccccc1)NC1(O)C(=O)c2ccccc2C1=O,nt,-3.0
O=C(Nc1cc2c(ccc3ccccc32)oc1=O)c1ccccc1,8,1.6
COC(=O)C1=C(Nc2ccc(Cl)cc2)CSC1,nt,-1.1
COc1cc(/C=C(/C#N)c2nc(-c3cc4c(ccc5ccccc54)oc3=O)cs2)ccc1O,nt,-2.4
Cc1nn(-c2ccccc2)c2c1C(C(F)(F)F)(C(F)(F)F)OC(c1ccco1)=N2,16,nt
O=S(=O)(NC1CCCc2ccccc21)c1cccs1 (stereo not drawn),nt,-1.0
Cc1ccccc1CSCC(=O)Nc1ccc(O)cc1C(=O)O,2,0.5
O=C(CSc1nc2ccccc2c2nc3ccccc3n12)NCc1ccco1,0,-1.1
C/C(=N/NC(=O)CSc1nc2ccccc2[nH]1)c1ccncc1,6,nt

The final 5 records of the section above come first, to join the parts:
Order of results – Sa helicase inh, MgrA DNA FP
> Cc1nn(-c2ccccc2)c2c1C(C(F)(F)F)(C(F)(F)F)OC(c1ccco1)=N2
→ 16, nt
> O=S(=O)(NC1CCCc2ccccc21)c1cccs1 (stereo not drawn)
→ nt, -1.0
> Cc1ccccc1CSCC(=O)Nc1ccc(O)cc1C(=O)O
→ 2, 0.5
> O=C(CSc1nc2ccccc2c2nc3ccccc3n12)NCc1ccco1
→ 0, -1.1
> C/C(=N/NC(=O)CSc1nc2ccccc2[nH]1)c1ccncc1
→ 6, nt
> CCCNC(=O)CCc1nnc2ccc(N3CCC(C)CC3)nn12
→ -17, nt
> O=C(Nc1nc2ccccc2[nH]1)C1CCCC1
→ -11, nt
> CC(=O)N1CC(C(=O)N2CCN(S(=O)(=O)c3ccccc3C#N)CC2)Oc2ccccc21 (stereo not drawn)
→ -7, nt
> N#CSCOC(=O)Oc1ccc2ccccc2c1
→ -11, nt
> CCn1c(O)c(C2=c3cc(Cl)ccc3=NC2=O)c2ccccc21
→ -13, 0.8
> CN1CCCc2cc(SC#N)ccc21
→ 8, nt
> CC(C)COC(=O)Nc1cccnc1
→ -10, nt
> CCN(CC)C(=O)c1[nH]c(C)c(C)c1C
→ nt, -1.5
> CCC(C)NC(=O)c1cnn2c(C)cc(C)nc12 (stereo not drawn)
→ 11, 0.2
> O=C(O)c1nn(CC2CCCCC2)c(=O)c2ccccc12
→ -4, nt
> CCOC(=O)/C=C1/CSc2ccccc2N1
→ 15, nt
> CCn1cc(S(=O)(=O)N2CCN(Cc3ccccc3)CC2)cn1
→ -7, -1.2
> CN1CCc2nc3ccccc3c(C(=O)OCC(=O)NCc3ccccc3)c2C1
→ -10, nt
> c1cncc(Oc2ncnc3sc4c(c23)CCCC4)c1
→ 4, nt
> CCOc1ccc(C2CC(=O)N3CN(CCc4ccccc4)CSC3=C2C#N)cc1 (stereo not drawn)
→ -1, nt
> COc1ncnc2nc[nH]c12
→ -3, 1.8
> Cc1onc2c1C(=O)CC(C)(C)C2
→ 0, 0.9
> Cn1nc(-c2ccccc2)cc1N
→ nt, -1.0
> CC(C)(C)c1cc(C(=O)NC2CC2)n(Cc2ccc(F)cc2)n1
→ -20, nt
> Cc1n[nH]c(C)c1Sc1ccccc1
→ -4, nt

Following part.
Order of results – Sa helicase inh, MgrA DNA FP
> Cc1[nH]c(SCC(=O)N2CCN(C(=O)c3ccco3)CC2)nc1Cc1ccccc1
→ -5, nt
> CS(=O)(=O)c1ccc(C(F)(F)F)cc1NNc1cc(C(F)(F)F)ccc1S(C)(=O)=O
→ nt, 8.8
> CCOC(=O)CCCc1c[nH]c2ccccc12
→ 11, nt
> COc1cccc(SCC(=O)N2CCN(c3ccccc3)CC2)c1
→ nt, -2.5
> Fc1ccc(CSc2nnc(-c3ccco3)o2)c(Cl)c1
→ 12, nt
> CN(C(=O)C12CCC(C)(C(=O)O1)C2(C)C)c1ccccc1 (stereo not drawn)
→ 17, -3.0
> CCCCNC(=O)c1ccc(CS(=O)(=O)c2ccc(C)cc2)o1
→ -23, nt
> CC(C)CNC(=O)c1cccc(S(=O)(=O)N(C)C)c1
→ -13, 0.0
> CCOC(=O)/C=C1\SCC(=O)N1CC(=O)Nc1cccc(C)c1C
→ -13, nt
> Cc1nc2ccccc2n1CCO
→ 14, nt
> O=C(CSc1nc2ccccc2c(=O)n1Cc1ccco1)N1CCc2ccccc21
→ 5, nt
> NC(=O)NC(=O)Cc1nc2ccccc2s1
→ nt, -2.6
> CCOC(=O)C1=NN(c2ccccc2)C(=O)/C1=C\c1ccc(N(C)C)cc1
→ 21, 34
> Cc1cccc(CN2CCCC2CO)c1 (stereo not drawn)
→ 9, 5.0
> O=C(Nc1ccc2c(c1)CCC2)c1ccccn1
→ 14, nt
> CCc1cccc(CC)c1NC(=O)COC(=O)Cc1ccsc1
→ 17, -2.4
> C=C1c2ccccc2NC(=S)N1C
→ 36, nt
> Cc1ccc(Cl)cc1NC(=O)CCN1C(=O)c2ccccc2Sc2ncccc21
→ -2, -2.2
> CCNc1cc(N2CCN(Cc3ccc(OC)c(OC)c3OC)CC2)c2noc3c2c1C(=O)c1ccccc1-3
→ -122, nt
> CCc1ccc(C(=O)NC(=O)c2ccccc2O)cc1
→ nt, -0.2

Next section
Order of results – Sa helicase inh, MgrA DNA FP
> CC1CCCCN1CCNC(=O)c1ccc2c(c1)N(Cc1ccccc1F)C(=O)c1ccccc1S2=O (stereo not drawn)
→ 9, nt
> CCS(=O)(=O)c1ccc2oc(SCC(=O)Nc3ccc(OC)cc3OC)nc2c1
→ -11, nt
> Cc1ccc(C(=O)CSC2=NCCCCC2)cc1
→ nt, -8.8
> Cc1ccc(NC(=S)N(Cc2c[nH]c3ccccc23)C(C)C)cc1C
→ 8, -0.4
> O=S(=O)(Cc1noc(-c2ccno2)n1)Cc1ccco1
→ -2, nt
> CC(C)(C)OC(=O)C(C)(C)S(=O)(=O)c1ccc(Cl)cc1
→ nt, 2.5
> CCC(=O)n1nc(-c2ccco2)nc1SC
→ 0, 8.8
> CSc1nc(C(N)=O)cc(=O)[nH]1
→ nt, -2.9
> Cc1cc(S(=O)(=O)NN(C)c2cccc(Cl)c2C#N)cc(C)c1F
→ nt, 1.9
> CC(OC(=O)C1=COCCO1)C(=O)Nc1ccccc1C#N (stereo not drawn)
→ -15, nt
> COC(=O)Cc1c(-c2ccccc2)c2cc(Br)ccc2[nH]c1=O
→ 2, nt
> O=C(CCS(=O)(=O)c1cccc2nonc12)Nc1nccs1
→ 11, nt
> CCc1ccc(/C=N\N2CCN(c3ccccc3)CC2)cc1
→ 22, nt
> COc1ccccc1N1CCN(S(=O)(=O)c2ccc(S(N)(=O)=O)cc2)CC1
→ -12, nt
> CCOC(=O)c1cc(-c2ccc(S(=O)(=O)N3CCCCC3)s2)on1
→ -1, nt
> Nc1c(-c2ccccc2)nnn1-c1ccccc1
→ 8, -0.8
> O=C(CSc1ccc(Cl)cc1)Nc1ccc(NC(=O)c2ccco2)cc1
→ -1, 2.0
> Cc1nnsc1C(=O)NCc1ccc(F)cc1
→ 3, nt
> O=C(O)c1ccccc1C1Nc2ccccc2S(=O)(=O)N1Cc1ccccc1 (stereo not drawn)
→ 17, nt
> CN(C(=O)COC(=O)c1ccc(Br)cc1)C1CCCCC1
→ -16, -0.5

Following part
Order of results – Sa helicase inh, MgrA DNA FP
> CC(C)CN(CC(C)C)S(=O)(=O)c1ccc(C(=O)Nc2nc3c(s2)CC(C)CC3)cc1 (stereo not drawn)
→ nt, 0.6
> N#CC1=C(N)OC2=C(C(=O)CCC2)C12CCCC2
→ 6, -2.5
> O=C(CSc1ccc(Cl)cc1)Nc1ccc(Br)cc1
→ nt, 0.1
> CNC(=O)Cn1cccc1C(=O)c1ccccc1C
→ 8, -2.6
> CC(=O)Nc1ccccc1OCC(O)CS(=O)(=O)Cc1ccc(Cl)cc1 (stereo not drawn)
→ nt, -0.9
> CSc1cccc(NC(=O)CSc2ncccc2C(=O)OC(C)C)c1
→ 4, -1.3
> Cc1nnc(SCCOc2ccccc2Cl)[nH]c1=O
→ -1, nt
> COC(=O)c1cn(NC(=O)CSc2ccncc2)c(=O)c2ccccc12
→ 6, nt
> OCC#CCSc1ncnn1-c1ccccc1
→ -11, nt
> COC(=O)c1cc(OC)c(OC)cc1NC(=O)Nc1cc(Cl)cc(Cl)c1
→ nt, 3.3

One compound at a time, as listed above.
CC(=O)Nc1ccccc1OCC(O)CS(=O)(=O)Cc1ccc(Cl)cc1 (stereo not drawn) is listed with Sa helicase inh = nt; MgrA DNA FP = -0.9
CNC(=O)Cn1cccc1C(=O)c1ccccc1C is listed with Sa helicase inh = 8; MgrA DNA FP = -2.6

These rows are one share of the data. The share of hits here may be higher or lower than overall.
